AmpC nodet inh: inhibitors of E. coli AmpC beta-lactamase without detergent. AmpC nitrocefin hydrolysis, absorbance 480 nm, no detergent; potencies from a single point are estimates. Potency, µM (top dose mostly 28.7 µM), for inactives: at the highest dose activity change, negative = inhibition. 1.8% of 71,000 active. AID 585; active = falling curve, for most hits resting on a single point; inconclusive = weak or doubtful change; inactive = flat or rising curve; further: % of control where 0% means no effect; about half of the hits show no inhibition at the top dose; a quarter of the inactives give rising signals
Target sequence (P00811 whole entry, looked up): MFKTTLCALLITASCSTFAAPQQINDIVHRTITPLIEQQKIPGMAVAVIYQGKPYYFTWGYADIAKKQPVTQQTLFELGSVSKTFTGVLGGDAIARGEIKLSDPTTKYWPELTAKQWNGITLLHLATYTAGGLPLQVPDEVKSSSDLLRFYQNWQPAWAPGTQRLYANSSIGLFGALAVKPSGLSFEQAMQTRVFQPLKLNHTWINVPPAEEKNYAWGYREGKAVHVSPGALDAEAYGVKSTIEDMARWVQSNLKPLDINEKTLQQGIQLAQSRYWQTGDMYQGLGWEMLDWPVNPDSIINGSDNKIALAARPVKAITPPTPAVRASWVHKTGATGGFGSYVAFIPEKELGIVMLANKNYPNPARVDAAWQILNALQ
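AmpC in 20 mM phosphate buffer pH 7.0 was preincubated 15 min at room temperature with compounds. Nitrocefin (800 uM stock) was then added and hydrolysis followed at 480 nm every 20 s for 4 min.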
Active calls of the source: *; [ ] = dose if it differs, or a comment. Potency means the concentration at half of the fitted maximal effect. Only part of the results is shown, so the mix of outcomes need not match the whole.

Start of the data: the first 14 compounds as a preview:
For COc1ccc(N2CCN(C(=O)c3ccc(NS(=O)(=O)c4ccc(F)c(F)c4)cc3)CC2)cc1 the results were AmpC nodet inh 8%.
CC(C)CN(CCCNC(=O)CC1Oc2ccccc2NC1=O)CC(C)C (stereo unspecified) was read as AmpC nodet inh -10%.
Screening Cc1ccc(N(C)C(=O)N2CCN(S(=O)(=O)c3ccc(C)cc3)CC2)cc1 returned AmpC nodet inh 92%.
`NC(=O)c1cccn1Cc1ccccc1Cl` gave AmpC nodet inh -12%.
For O=C(NC12CC3CC(CC(C3)C1)C2)N1CC2Cc3cccc(=O)n3C(C2)C1 (stereo unspecified) the results were AmpC nodet inh 10%.
For Cn1nnc2c(N3CCCCC3)nccc21 the results were AmpC nodet inh 8%.
`Cc1nc2ccc(NC(=O)Cn3cnc4c3c(=O)n(C)c(=O)n4C)cc2s1` gave AmpC nodet inh 5%.
For CC(C)NC(=O)c1c(O)c2ccccc2[nH]c1=O the results were AmpC nodet inh -2%.
c1cncc(-c2nn3c(-c4ccncc4)nnc3s2)c1 was read as AmpC nodet inh -9%.
For Cc1ccc(SCCC(=O)NCc2ccco2)cc1 the results were AmpC nodet inh -4%.
CCN(Cc1ccccc1)C(=O)Cn1cc2c(n1)CCCC2 was read as AmpC nodet inh 23%.
COc1ccc(-c2nc(CS(=O)CC(=O)NCc3cccnc3)c(C)o2)cc1 (stereo unspecified) was read as AmpC nodet inh 3.2µM*[single pt active].
CCN(CC)CCCN1C(=O)c2oc3ccccc3c(=O)c2C1c1cc(OC)ccc1OC (stereo unspecified) was read as AmpC nodet inh 31%.
Screening O=C(O)CSCCCC(=O)Nc1ccc(Br)cc1 returned AmpC nodet inh -3%.

The whole of this part, repeating the preview:
For COc1ccc(N2CCN(C(=O)c3ccc(NS(=O)(=O)c4ccc(F)c(F)c4)cc3)CC2)cc1 the results were AmpC nodet inh 8%.
CC(C)CN(CCCNC(=O)CC1Oc2ccccc2NC1=O)CC(C)C (stereo unspecified) was read as AmpC nodet inh -10%.
Screening Cc1ccc(N(C)C(=O)N2CCN(S(=O)(=O)c3ccc(C)cc3)CC2)cc1 returned AmpC nodet inh 92%.
`NC(=O)c1cccn1Cc1ccccc1Cl` gave AmpC nodet inh -12%.
For O=C(NC12CC3CC(CC(C3)C1)C2)N1CC2Cc3cccc(=O)n3C(C2)C1 (stereo unspecified) the results were AmpC nodet inh 10%.
For Cn1nnc2c(N3CCCCC3)nccc21 the results were AmpC nodet inh 8%.
`Cc1nc2ccc(NC(=O)Cn3cnc4c3c(=O)n(C)c(=O)n4C)cc2s1` gave AmpC nodet inh 5%.
For CC(C)NC(=O)c1c(O)c2ccccc2[nH]c1=O the results were AmpC nodet inh -2%.
c1cncc(-c2nn3c(-c4ccncc4)nnc3s2)c1 was read as AmpC nodet inh -9%.
For Cc1ccc(SCCC(=O)NCc2ccco2)cc1 the results were AmpC nodet inh -4%.
CCN(Cc1ccccc1)C(=O)Cn1cc2c(n1)CCCC2 was read as AmpC nodet inh 23%.
COc1ccc(-c2nc(CS(=O)CC(=O)NCc3cccnc3)c(C)o2)cc1 (stereo unspecified) was read as AmpC nodet inh 3.2µM*[single pt active].
CCN(CC)CCCN1C(=O)c2oc3ccccc3c(=O)c2C1c1cc(OC)ccc1OC (stereo unspecified) was read as AmpC nodet inh 31%.
Screening O=C(O)CSCCCC(=O)Nc1ccc(Br)cc1 returned AmpC nodet inh -3%.
CCOC(=O)CN(Cc1ccccc1)S(=O)(=O)c1ccc(NC(C)=O)cc1 was read as AmpC nodet inh 35%.
For CC(=O)c1cccc(NC(=O)C2CCCN(S(=O)(=O)c3cccc4cccnc34)C2)c1 (stereo unspecified) the results were AmpC nodet inh 33%.
O=C(NCCCN1CCCCCC1)c1ccc(N2CCCC2=O)cc1 was read as AmpC nodet inh -4%.
Screening CCCSc1ncnc2c1oc1ccccc12 returned AmpC nodet inh 25%.
`CCn1c(=O)n(CC(=O)Nc2cc(OC)ccc2OC)c(=O)c2ccccc21` gave AmpC nodet inh 34%.
COc1ncc2nc(-c3ccccc3)c(=O)n(-c3ccccc3)c2n1 was read as AmpC nodet inh 27%.
COc1cccc(C(C(=O)NC2CCCC2)N(C(=O)c2ccco2)C2CC2)c1OC (stereo unspecified) was read as AmpC nodet inh 15%.
`Cc1cc(C)nc(N2CCC(C(=O)Nc3cccc(C(F)(F)F)c3)CC2)n1` gave AmpC nodet inh 11%.
CC1(C)OC(C(N)=O)C(C(N)=O)O1 (stereo unspecified) was read as AmpC nodet inh 0%.
For COc1cccc(C(=O)NCc2ccccc2OC)c1 the results were AmpC nodet inh -9%.
For O=c1cc(C(F)(F)F)c2sc(N3CCCCC3)nc2[nH]1 the results were AmpC nodet inh -7%.
CCOc1ccc(C2CC(c3cccc(OC)c3)Nc3nc(N)nn32)cc1 (stereo unspecified) was read as AmpC nodet inh 80%.
COc1ccc(CN(C(=O)c2snc(C(N)=O)c2N)C(C(=O)NC(C)(C)C)c2ccco2)cc1 (stereo unspecified) was read as AmpC nodet inh 68%.
For CCOC(=O)c1cc(-c2ccccc2)n(CC(=O)N2CCCC2)c1C the results were AmpC nodet inh 121%.
For CC1CCCCN1Cc1nc2c(c(=O)n(C)c(=O)n2C)n1CCCc1ccccc1 (stereo unspecified) the results were AmpC nodet inh 146%.
For COC(=O)c1ccccc1NC(=O)Nc1nnc(N2CCCCC2C)s1 (stereo unspecified) the results were AmpC nodet inh 4µM*[single pt active].
CC1C(c2ccccc2)=[N+]([O-])C2(CCCC2)N1O (stereo unspecified) was read as AmpC nodet inh -8%.
`O=C(Nc1cccnc1)Nc1ccc(Br)cc1Cl` gave AmpC nodet inh -12%.
Cc1ccc2c(c1)C1CN(C)CCC1N2C(=O)c1ccco1 (stereo unspecified) was read as AmpC nodet inh -18%.
`CSC(=NS(=O)(=O)c1ccc(C)cc1)SC` gave AmpC nodet inh -1%.
Screening Nc1nc(-c2ccccc2)nn1C(=O)Cc1ccccc1 returned AmpC nodet inh -3%.
Screening Cn1c(SCC(=O)NC2CCCCCC2)nnc1-c1cccs1 returned AmpC nodet inh 7%.
O=C(O)c1ncc(-c2ccccc2)cn1 was read as AmpC nodet inh 2%.
Screening O=S(=O)(NC1CCCCCC1)c1cccc2cccnc12 returned AmpC nodet inh 1%.
CC(=O)c1cc2cc(O)ccc2o1 was read as AmpC nodet inh 3%.
COc1ccc2c(c1)c(C(=O)CN1CCN(C)CC1)c(C)n2Cc1ccccc1 was read as AmpC nodet inh 74%.
Screening O=C(Cc1c(C(=O)O)[nH]c2ccccc12)NCCN1CCN(c2cccc(Cl)c2)CC1 returned AmpC nodet inh 36%.
Screening O=C(O)c1cccc(N2CCCC2)c1 returned AmpC nodet inh 1%.
For CC(C)c1ccc(-c2nnn(CCC(=O)O)n2)cc1 the results were AmpC nodet inh -6%.
CCOc1ccc(S(=O)(=O)N(CC(=O)O)c2ccc(C)cc2)cc1 was read as AmpC nodet inh -6%.
For COc1ccc(-n2c(CNC(=O)c3ccc(S(=O)(=O)N4CCCC4)cc3)n[nH]c2=S)cc1 the results were AmpC nodet inh 2%.
Screening COc1ccc(-n2c(=O)c(C)nc3cnc(Nc4ccccc4)nc32)cc1 returned AmpC nodet inh 46%.
For Cc1c(C(=O)NC2CCCCC2)oc2c1C(=O)CC(C)(C)C2 the results were AmpC nodet inh 24%.
Screening COCCn1c(=O)cnc2cnc(N(C)C)nc21 returned AmpC nodet inh 6%.
For CCOc1ccc2[nH]c(=O)c(CN(Cc3ccco3)Cc3nnnn3Cc3ccccc3)cc2c1 the results were AmpC nodet inh 72%.
O=c1cc(CSc2nnnn2-c2ccccc2)nc2nc[nH]n12 was read as AmpC nodet inh 10%.
CCCn1c(SCC(=O)Nc2nc(C)cs2)nnc1-c1cccnc1 was read as AmpC nodet inh 11%.
For CCN1CCN(C(=O)C(C)N(c2ccc(C)cc2)S(C)(=O)=O)CC1 (stereo unspecified) the results were AmpC nodet inh 0%.
`CCN(CC)C(=O)N[C@H]1C[C@H]2c3cccc4[nH]cc(c34)C[C@@H]2N(C)C1` gave AmpC nodet inh 11%.
`O=C(NCc1cn2ccsc2n1)c1cccc(C(F)(F)F)c1` gave AmpC nodet inh 9%.
For CCOC(=O)CSc1nnc(CSc2nc3ccccc3c(=O)[nH]2)n1-c1ccccc1 the results were AmpC nodet inh 24%.
`Cc1ccc(N(CC(=O)Nc2ccc(S(=O)(=O)N3CCOCC3)cc2)S(C)(=O)=O)cc1C` gave AmpC nodet inh 67%.
For CCOC(=O)c1[nH]c(C)c(C(=O)NC2CCCCCC2)c1C the results were AmpC nodet inh 24%.
For COc1ccc(Cl)c(Cn2c(NCCCO)nc3c2c(=O)n(C)c(=O)n3C)c1 the results were AmpC nodet inh 32%.
Screening Fc1ccc(-c2cc3nc(-c4ccccc4)cc(N4CCOCC4)n3n2)cc1 returned AmpC nodet inh 48%.
`O=c1c2ccccc2nc2c3ccccc3ncn12` gave AmpC nodet inh -10%.
Screening CS(=O)(=O)c1ccc(CNC(=O)[C@H]2C[C@@H]2[C@H](NP(=O)(c2ccccc2)c2ccccc2)c2ccccc2)cc1 returned AmpC nodet inh 160%.
`C(=C/c1ccccc1)/CN1CCN(C(c2ccccc2)c2ccccc2)CC1` gave AmpC nodet inh 3%[12.8 µM].
O=C(NCCN1CCOCC1)C1CCN(S(=O)(=O)N2CCCCC2)CC1 was read as AmpC nodet inh -2%.
`CC(C)C(NC(=O)c1cccs1)c1nnc(SCC(=O)Nc2nccs2)n1C` (stereo unspecified) gave AmpC nodet inh 14%.
`CC(C)(c1ccc(OC[C@@H]2CO2)cc1)c1ccc(OC[C@H]2CO2)cc1` gave AmpC nodet inh 90%.
Screening Cc1nc(NC(=O)CN2CCOCC2)sc1-c1ccccc1 returned AmpC nodet inh 75%.
O=C(Nc1ccc(Cc2ccncc2)cc1)c1ccc(Br)o1 was read as AmpC nodet inh 3%.
For CCc1[nH]nc2c1C1(C(=O)N(Cc3ccccc3)c3ccccc31)C(C#N)=C(N)O2 (stereo unspecified) the results were AmpC nodet inh 5%.
COc1ccc(OC)c(CCNC(=O)CC2Oc3ccccc3NC2=O)c1 (stereo unspecified) was read as AmpC nodet inh 14%.
CC(C)C[C@@H](CC(=O)N[C@H](CC(=O)N[C@@H]1CCNC[C@H]1C(=O)N[C@H](CC(=O)N[C@@H](CCC(=O)O)CC(=O)O)Cc1c[nH]c2ccccc12)C(C)C)NC(=O)[C@@H]1CNCC[C@H]1N was read as AmpC nodet inh 71%.
For O=C(NC1CCCCC1)C(c1ccccc1)N1CCOCC1 (stereo unspecified) the results were AmpC nodet inh 1%.
For CN1C(=O)CC(N2CCC(C(N)=O)(N3CCCCC3)CC2)C1=O (stereo unspecified) the results were AmpC nodet inh -13%.
COc1ccc(NC(=O)c2cc(C(C)C)on2)c(OC)c1 was read as AmpC nodet inh 27%.
`Cc1ccccc1-c1nnc(SCC(=O)Nc2cccc(C)c2C)o1` gave AmpC nodet inh 0%.
Cc1ccc(Cn2ccc(NC(=O)c3cc(C(C)C)on3)n2)cc1 was read as AmpC nodet inh 3%.
Cc1cc(C)cc(N(CC(=O)Nc2c(C)n(C)n(-c3ccccc3)c2=O)S(C)(=O)=O)c1 was read as AmpC nodet inh 8%.
CCC1Oc2ccc(C)cc2N(CC(=O)NCc2ccccc2OC)C1=O (stereo unspecified) was read as AmpC nodet inh 5%.
For Cc1cc(C)c(NC(=O)Cn2cc3c(n2)CCCC3)c(C)c1 the results were AmpC nodet inh 2%.
`Cc1cc(C(F)(F)F)nc(SCC(=O)NC2CC3CCC2C3)n1` (stereo unspecified) gave AmpC nodet inh 28%.
For COc1cccc(-c2nc(C(N)=O)c3[nH]c(=O)n(-c4cccc(Cl)c4)c3n2)c1OC the results were AmpC nodet inh 7%.
For CCCOc1ccc(S(=O)(=O)NCCN2CCOCC2)c2ccccc12 the results were AmpC nodet inh 109%.
`CCCCNC(=O)CC1Nc2ccccc2NC1=O` (stereo unspecified) gave AmpC nodet inh 1%.
`Cc1ccc(C)c(/C(O)=C2\C(=O)C(=O)N(CCCn3ccnc3)C2c2ccncc2)c1` (stereo unspecified) gave AmpC nodet inh 63%.
Screening O=C(Nc1ccccc1Cl)c1c(F)c(F)c(F)c(F)c1F returned AmpC nodet inh 2%.
Screening Cc1cc(C)c2nc(C(F)(F)F)nc(N3CC(C)OC(C)C3)c2c1 (stereo unspecified) returned AmpC nodet inh 23%.
Screening O=c1cc(O)nc(SC23CC4CC(CC(C4)C2)C3)[nH]1 returned AmpC nodet inh -25%.
For O=C(Nc1ccccc1N1CCN(c2ccc(F)cc2)CC1)c1ccccc1 the results were AmpC nodet inh 8%.
For O=C(O)CCCCCC[C@@H]1C(=O)NC(=O)N1CC[C@@H](O)C1CCCCC1 the results were AmpC nodet inh -2%.
CCN(CC)Cc1c[nH]c2c(C(=O)OC)cccc12 was read as AmpC nodet inh 15%.
Screening O=C(O)c1cccnc1-c1ncccc1C(=O)O returned AmpC nodet inh -10%.
Screening COc1cc(C(=O)Nc2ccc(OCC(=O)O)cc2)cc(OC)c1OC returned AmpC nodet inh -4%.
For NC(=O)C1CC(O)CN1c1nc(CN2CCOCC2)nc2scc(-c3ccccc3)c12 (stereo unspecified) the results were AmpC nodet inh 2%.
Cc1ccc(CNC(=O)[C@H](C)[C@@H]2C[C@@]2(C)[C@@H](NC(=O)OCc2ccccc2)c2ccccc2)c(F)c1F was read as AmpC nodet inh -6%.
`Cc1cc(NC(=O)COc2ccc(N(C)S(=O)(=O)c3ccccc3)cc2)no1` gave AmpC nodet inh -12%.
Cc1ccc(Cl)cc1NC(=O)COC(=O)C1CCCC1 was read as AmpC nodet inh -9%.
For CCOC(=O)Nc1ccc2c(CN3C(=O)NC4(CCCC4)C3=O)cc(=O)oc2c1 the results were AmpC nodet inh 5%.
Screening Cc1csc2ncc(C(=O)Nc3ccon3)c(=O)n12 returned AmpC nodet inh 2%.
For COc1ccc(C(C(=O)NC2CCCC2)N(C(=O)c2ccco2)c2ccc3c(c2)OCO3)cc1OC (stereo unspecified) the results were AmpC nodet inh 51%.

High-throughput results as filed in PubChem BioAssay.
